HSD17B inh = blocks hydroxysteroid 17-beta dehydrogenase activity; recombinant HSD17B10, NADH fluorescence kinetic; many of its hits are not listed in these tables; Potency, µM (series often up to 57.1 µM), inactives show at the top dose activity change, negative = inhibition, actives largely listed as inhibitors; Q99714; hit rate 7.6% among 75,000; AID 893; active = well fitted inhibition curve with a large enough effect; inconclusive = small, poorly fitted or top-dose-only effect; inactive = no such curve, though single readings can be large or run the other way;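 also: the protocol describes HADH2 (HSD17B10) and not the HSD17B4 of the title; nearly all actives have a fitted effect of over 70% in size; most hits overshoot -100% by far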
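20 nM HADH2, pH 9.0 Tris/Tween; cpd preinc 15 min RT; start w/ 1 mM NAD+ + 90 uM b-hydroxybutyryl-CoA; kinetic fluor ex360/em450 q30s x 4 min; delta last-first.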
* = called active by the depositor; ? = inconclusive; [ ] = another dose, or the depositor's remark. % is scaled to controls: 0 for no effect and ±100 for the full control effect; potency is read from the fitted curve at half-maximal effect.

item | smiles | HSD17B inh
1 | Oc1ccc(Cl)cc1Cc1cc(Cl)ccc1O | -15%
2 | CCOC(=O)c1ccc(N2C(=O)CC(N3CCN(Cc4ccccc4)CC3)C2=O)cc1 (stereo not drawn) | -6%
3 | O=C(NCCCN1CCC(Cc2ccccc2)CC1)C1CCC(=O)N1C1CCCC1 (stereo not drawn) | 3%
4 | Cn1c(C(=O)O)cc2cc(F)ccc21 | ?
5 | CCOC(=O)C1CCN(CCC(=O)Nc2cccc(Cl)c2C)CC1 | -3%
6 | Cc1nn(-c2ccccc2)c2nc(N)c(C#N)c(-c3ccc(F)cc3)c12 | ?
7 | O=C(NCc1cccs1)C(Cc1ccccc1)n1cccc1 (stereo not drawn) | -19%
8 | O=C(CN1C(=O)C2CC=C(Cl)CC2C1=O)Nc1ccc(C(=O)O)cc1 (stereo not drawn) | -3%
9 | OC(C#CCN1CCCC1)c1ccccc1 (stereo not drawn) | 1%
10 | CC(=O)c1ccc(N2CCN(C(=O)c3ccc(Br)cc3)CC2)c(F)c1 | 1%
11 | O=c1c2c([nH]c3ccccc13)C(=C1CCCC1)CC2 | 32µM*
12 | O=C(CS(=O)(=O)Cc1ccccc1)N1CCN(c2cccc(C(F)(F)F)c2)CC1 | -8%
13 | CNc1nc(C)c(C(=O)OCc2ccccc2)s1 | 7%
14 | O=C(CC12CC3CC(CC(C3)C1)C2)N1CCCOC1 | -9%
15 | O=c1[nH]c(Cc2ccccc2)nc2c1oc1ccccc12 | -9%
16 | Nc1ccccc1S(N)(=O)=O | 4%[25.6 µM]
17 | COc1ccccc1Cn1c(=O)c2ccccc2n2c(Sc3ncnc4sccc34)nnc12 | -5%
18 | O=C(O)CCN1C(=O)c2ccc(NC(=O)c3cccs3)cc2C1=O | 32µM*
19 | COc1c(F)c(F)c(C(=O)Nc2ccccc2N2CCN(C(C)=O)CC2)c(F)c1F | -1%
20 | Oc1ccc2ccccc2c1/C=C\c1ccc2c(Br)cc(Br)c(O)c2n1 | -6%[11.4 µM]
21 | COc1ccc(Cl)cc1N1C(=O)C2CCCN2C1c1ccccc1F (stereo not drawn) | 1%
22 | CCOc1ccc(C2SCC(=O)N2c2c(C)n(C)n(-c3ccccc3)c2=O)cc1 (stereo not drawn) | -10%
23 | Cc1ccc(OCc2occc2C(=O)O)cc1 | -12%
24 | O=C(CSc1ncn(-c2ccccc2)n1)NCc1ccccc1 | 2%
25 | C=CCNc1ncnc2c1[nH]c1ccccc12 | 32µM*
26 | CC(=O)c1c(C(C)=O)c(C)n(Cc2ccc3c(c2)OCO3)c1C | 7%
27 | COc1ccccc1NC(=O)N1CCN(c2ccc3nncn3n2)CC1 | 1%
28 | COc1ccc2cc(CCNC(=O)C(C)(C)C)c(=O)[nH]c2c1 | ?
29 | CC(C(=O)N1CCN(c2ccccc2)CC1)N1C(=O)C2CC=CCC2C1=O (stereo not drawn) | 0%
30 | Cc1ccc(Cl)cc1N1CCN(C(c2ccc(C#N)cc2)c2nnnn2C2CCCC2)CC1 (stereo not drawn) | -1%
31 | Cc1cc(C(=O)O)ccc1-n1c(C)ccc1C | 32µM*
32 | COc1cc2c(C(=O)NCc3ccc4c(c3)OCO4)cn(C)c(=O)c2cc1OC | -5%
33 | COc1ccccc1NC(=O)CSc1ncnc2c1oc1ccccc12 | 12%
34 | O=C(OCC(=O)N(C1CCCCC1)C1CCCCC1)c1cnccn1 | -6%
35 | CCN1C(=O)NC2C1N(S(C)(=O)=O)CCN2S(C)(=O)=O (stereo not drawn) | -7%
36 | CC(=O)OC1CC2C(C)(C)C(=O)CC[C@]2(C)C2CC[C@@]3(C)C(c4ccoc4)OC(=O)C4OC43[C@]12C (stereo partly drawn) | 0%
37 | N#Cc1nc(Cc2cccc3ccccc23)oc1NCCCn1ccnc1 | -5%
38 | O=C(NC(Cc1cc(=O)[nH]c2ccccc12)C(=O)O)c1ccc(Cl)cc1 (stereo not drawn) | 0%
39 | CCOc1ccc(-c2[nH]nc3c2C(c2cccnc2)C(C#N)=C(N)O3)cc1 (stereo not drawn) | -4%
40 | O=C(COC(=O)c1cc(S(=O)(=O)N2CCOCC2)ccc1O)NCC1CCCO1 (stereo not drawn) | 32µM*
41 | COc1ccccc1-n1nnnc1SCc1cc2c(cc1Br)OCO2 | -2%
42 | Cc1ccccc1CNc1ncnc2c1ncn2[C@@H]1O[C@@H](CO)[C@H](O)[C@@H]1O | -6%
43 | CCC(=O)OCN1C(=O)C=CC1=O | -23%[11.4 µM]
44 | CCOC(=O)N1CCC(NC(=O)c2cc(C(=O)NCc3ccc(F)cc3)ccc2CO)CC1 | -4%
45 | O=C(COC(=O)CNC(=O)C1CCCCC1)Nc1ccc(Cl)cn1 | -4%
46 | Cc1cccc(C)c1NC(=O)C1(N(Cc2ccco2)C(=O)c2ccccn2)CCCC1 | -4%
47 | CCOC(=O)N1CCC(NC(=O)CCS(=O)(=O)c2ccc3c(c2)CCN3C(C)=O)CC1 | -5%
48 | Cc1ccc2c(c1)C1OCCC1C1N2C(=O)C2C(C(=O)O)C3C=CC21O3 (stereo not drawn) | 3%
49 | O=C(CSc1nnnn1C1CCCC1)Nc1ccc2c(c1)OCCO2 | -9%
50 | COC(=O)C1CCN(C(=O)N2CCOCC2)CC1 | 9%
51 | CCOC(=O)C1CCN(c2c(N(C)Cc3ccco3)c(=O)c2=O)CC1 | -11%
52 | COC(=O)C1(CC(C)C)C=C2C(=C(c3ccccc3)C(=O)C2C)CN1 (stereo not drawn) | ?
53 | Cc1ccc(C)c(CSc2nnc(-c3cccnc3)o2)c1 | 5%
54 | COc1ccc(-c2cn3c4c(sc3n2)CCCC4)cc1 | -1%
55 | CO[C@@H]1COC(=O)CC=C[C@@H](C)[C@@H]2C=C[C@H](O)[C@@H](COC(=O)C/C=C\[C@H]1C)O2 | 0%[11.4 µM]
56 | Cn1c(=O)[nH]c(=O)c2c1nc(NCCCn1ccnc1)n2CCOc1ccccc1 | 8%
57 | CCN(CC(=O)Nc1c(C(=O)OC)[nH]c2ccc(C)cc12)c1ccc2c(c1)OCO2 | 10%
58 | COc1ccc(C)cc1NC(=O)c1cc2ccccc2o1 | 5µM*
59 | CC1=CC(C)(C)N2C(=O)C3(SCC(=O)N3c3ccc(O)cc3)c3cc(C)cc1c32 (stereo not drawn) | -7%
60 | Cc1nn(CC(O)Cn2cnc3c2c(=O)n(C)c(=O)n3C)c(C)c1Br (stereo not drawn) | 2%

As entered above:
HSD17B inh, entry 24 = 2%
HSD17B inh, entry 44 = -4%

4 entries from above, as labelled records:
#21 COc1ccc(Cl)cc1N1C(=O)C2CCCN2C1c1ccccc1F (stereo not drawn)
  HSD17B inh: 1%

#26 CC(=O)c1c(C(C)=O)c(C)n(Cc2ccc3c(c2)OCO3)c1C
  HSD17B inh: 7%

#4 Cn1c(C(=O)O)cc2cc(F)ccc21
  HSD17B inh: ?

#17 COc1ccccc1Cn1c(=O)c2ccccc2n2c(Sc3ncnc4sccc34)nnc12
  HSD17B inh: -5%

Next part:
item | smiles | HSD17B inh
61 | COc1cc(OC)cc(C(=O)Nc2ncc3c(n2)CC(C)CC3=O)c1 (stereo not drawn) | 3%
62 | CS(=O)(=O)N(CC(=O)N1CCN(c2cccc(Cl)c2)CC1)C1CCCCC1 | 0%
63 | C=CCN1C(=O)C2(/C(=C(\O)c3ccc4c(c3)OCCO4)C(=O)C(=O)N2CCCOC)c2ccccc21 (stereo not drawn) | 5%
64 | CC1CCN(Cc2nc3c(c(=O)n(C)c(=O)n3C)n2Cc2cccc3ccccc23)CC1 | 5%
65 | Nn1nnc2ccccc21 | -8%
66 | COc1ccc(Cl)cc1NC(=O)c1ccco1 | 314%[activator]
67 | CN(C)c1ccc(CN(C(=O)COc2ccc(F)cc2)C2CCS(=O)(=O)C2)cc1 (stereo not drawn) | 1%
68 | CC(NC(=O)c1ccccc1O)c1ccccc1 (stereo not drawn) | 25µM*
69 | Cc1ccc(C(=O)N2CCC(C(N)=O)CC2)cc1C | 2%
70 | COc1ccccc1-n1cnc2cc(C(=O)NCc3ccco3)ccc21 | -19%
71 | O=C(NC1CCCCNC1=O)c1ccc(Cl)cc1 (stereo not drawn) | 1%
72 | COc1ccc(C(=O)N2CCCC(c3nc(-c4cccs4)no3)C2)cc1OC (stereo not drawn) | -11%
73 | COC(=O)[C@@H]1CC[C@H](C)[C@@H](c2ccc(C)cc2)N1C(=O)c1ccc(/C=N\O[C@@H]2O[C@H](COC(C)=O)[C@H](OC(C)=O)[C@H](OC(C)=O)[C@H]2OC(C)=O)cc1 | -4%[11.4 µM]
74 | Cc1ccc(C(=O)OCC(=O)Nc2sc3c(c2C#N)CCCCC3)cc1NC(=O)c1ccco1 | -13%
75 | CS(=O)(=O)N1CCCC(C(=O)NCc2cccs2)C1 (stereo not drawn) | 10%
76 | Cc1cc(NS(=O)(=O)c2ccccc2)n(-c2ccccc2)n1 | -3%
77 | Cn1c(C(=O)N(Cc2ccccc2)Cc2ccccn2)cc2sccc21 | -8%
78 | O=C(c1cnccn1)N1CCC[C@@]2(CCN(C(c3ccccc3)c3ccccc3)C2)C1 | 0%
79 | CCOC(=O)OCC1OC(c2cc(C)cc(C)c2)C=CC1OC(=O)OCC (stereo not drawn) | 0%[11.4 µM]
80 | O=C1c2ccccc2C(Nc2ccc3c(c2)OCCO3)N1c1ccc(Cl)cn1 (stereo not drawn) | -9%
81 | Cc1ccc(-c2cc(=O)[nH][nH]2)c(C)c1 | 0%
82 | Cc1csc(C(C#N)C(=O)c2ccc(S(=O)(=O)N3CCCC3)cc2)n1 (stereo not drawn) | ?
83 | CN1CCN(Cc2cc(=O)oc3cc4c(cc23)CCC4)CC1 | -10%
84 | O=C(CC1CCCCC1)c1c(O)c2ccccc2oc1=O | 8%
85 | Cn1ccnc1C(O)(c1nnc(-c2ccccc2)o1)C(F)(F)F (stereo not drawn) | 4%
86 | CCCc1cc(=O)[nH]c(SCCOc2ccc(Cl)cc2)n1 | -6%
87 | CCOc1ccc(-c2nc(S(=O)(=O)c3ccccc3)c(NCc3cccnc3)o2)cc1 | -15%
88 | CCOC(=O)C1=C(C)Nc2nc(SCC(=O)OC)nn2C1c1cc(F)cc(F)c1 (stereo not drawn) | 33%[activator]
89 | O=C(CN1C(=O)C2CC=CCC2C1=O)OCCN1C(=O)c2ccccc2C1=O (stereo not drawn) | 5%
90 | c1nc(N2CCC3(CC2)OCCO3)c2[nH]cnc2n1 | 2%
91 | COc1ccc(Nc2nnc(Cc3ccccc3)c(=O)[nH]2)c(OC)c1 | 3%
92 | COC(=O)[C@@]1(Cc2ccccc2)[C@H]2c3cc(C(=O)N4CCCC4)n(C)c3C[C@H]2CN1C(=O)c1ccccc1 | -6%
93 | COc1cc(CO)cc(-c2cc(CO)cc(OC)c2OC)c1OC | 3%
94 | Cc1ccc(S(=O)(=O)Oc2ccc(N=Nc3ccc(-c4ccc(N=Nc5c(O)ccc6cc(S(=O)(=O)O)cc(S(=O)(=O)O)c56)c(C)c4)cc3C)cc2)cc1 | 25µM*
95 | O=C(CSc1nc2c(c(C(F)(F)F)n1)CCc1ccccc1-2)NCc1ccco1 | 7%
96 | Cc1noc(C)c1COc1cccc(C(=O)Oc2ccc3c(c2)OCO3)c1 | -1%
97 | CCCc1ccc(OCC(=O)O)cc1 | -3%
98 | CC(C)NC(=O)N1CCC2(CC1)CCN(C(=O)c1cccn1C)CC2 | 9%
99 | Cc1nc(-c2ccc3c(c2)OCO3)cs1 | -5%
100 | Cc1cc(C)n(-c2nc3ccccc3nc2N2CCN(C(=O)c3ccc(F)cc3)CC2)n1 | 4%
101 | N#Cc1c2n(c3c(=O)n(Cc4ccccc4)cnc13)CCCC2 | -7%
102 | O=C(NCc1ccco1)c1nn(-c2ccccc2)c(=O)c2ccccc12 | -22%
103 | COc1ccc(S(=O)(=O)N(CCCN2CCCC2=O)Cc2cc3cc(C)c(C)cc3[nH]c2=O)cc1 | ?
104 | CCOc1ccc2ccccc2c1/C=N/n1cncn1 | -9%
105 | Cc1csc(NC(=O)c2nc3nc(C)cc(C)n3n2)n1 | 7%
106 | O=C(Nc1ccc(-c2nc3ccccc3[nH]2)cc1)c1ccco1 | ?
107 | CC12CCC(C(=O)NCC3CCCO3)(OC1=O)C2(C)C (stereo not drawn) | 12%
108 | O=C(O)CSC1c2ccccc2C(=O)N1Cc1ccccc1 (stereo not drawn) | 1%
109 | CC(C)Oc1ccc(CNC2CCOC(C)(C)C2)cc1 (stereo not drawn) | 10%
110 | Cc1nc(-c2ccc(S(=O)(=O)N3CCCCCC3)cc2)cs1 | -3%
111 | O=C(CSc1nnnn1-c1cccnc1)NCc1cccs1 | -6%
112 | O=C1c2c(O)cc(O)cc2OC(c2ccc(O)c(O)c2)C1O (stereo not drawn) | -11%
113 | CCN(c1ccccc1)c1cc(NC)[n+](C)c(C)n1 | -3%
114 | CC(C)OC(=O)CSc1nnc(-c2ccncc2)n1N | 2%
115 | CSc1nc2cc(S(=O)(=O)N3CCOCC3)ccc2s1 | 0%
116 | Cc1cc(C)nc(SCc2nnc(SCC(=O)Nc3ccc(C)c(C)c3)n2Cc2ccco2)n1 | -8%
117 | N#Cc1ccc(CN2CCCC3(CCN(C(=O)c4cccc(F)c4)CC3)C2)cc1 | -10%
118 | CCC(=O)Nc1c(C)nn(C(=O)CC)c1C | 5%
119 | NC(=O)c1c(N)sc(=S)n1CC1CCCO1 (stereo not drawn) | 0%
120 | COC(=O)c1ccc(C(NC(=O)OCc2ccccc2)/C(F)=C/[C@@H](C)C(=O)NCc2ccc(OC)c(OC)c2)cc1 (stereo partly drawn) | -8%
121 | CCN(CC)CCn1c(-c2ccccc2)nc2c(NCCOC)nc(C)nc21 | 25µM*
122 | CCOC(=O)C1=C(C)NC(C)=C(C(=O)OCC)C1 | 1%
123 | COC(=O)[C@@]1(Cc2ccc(F)cc2)[C@H]2c3cc(C(=O)N4CCCC4)n(CCSCCO)c3C[C@H]2CN1C(=O)c1ccccc1 | -1%

Only part of the results is shown; the hit share may differ from the screen's.
